Assay outcomes (PubChem BioAssay)
Beta2AR agonist – agonists of human beta-2 adrenergic receptor inducing internalization | 0.43% of 340,000 active | response, % (test concentration not listed) | Am2.2-beta2AR cells, FAP receptor internalization, flow cytometry; reference of the scale not given here;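 active = response above a set limit, near 3 SD of response in nonfluorescent compounds, cut at about 42% in these data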;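 note: stock transfer was 100 nL into about 11 µL; a reference agonist was the positive control; negative values mostly stem from fluorescent compounds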
Vif TR-FRET – inhibitors of Vif binding to APOBEC3G peptide, primary screen, biochemical, TR-FRET, GST-Vif 1-94, biotin-A3G peptide, dose response retest (AID 1117319) | TR-FRET GST-Vif / biotin-A3G peptide binding; higher % means a stronger effect; test concentration not given here; strong numbers were not always called active | inhibition, %, or IC50 in µM where a hit was titrated | 0.57% of 260,000 active;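 active = above the screen mean plus three standard deviations and confirmed in dose response; inconclusive = results disagree or hit not tested in dose response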;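 note: Vif residues 1-94 fused to GST binding biotinylated APOBEC3G peptide 110-148; 0% = full assay without inhibitor and 100% = GST in place of GST-Vif; retest series ran down from 100 µM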
UCH37 DUB inh – blocks the human deubiquitinase UCH37; inhibition, % (concentration not given with the values); 0.33% of 330,000 active; Q9Y5K5; purified proteasome/UCH37, Ub-AMC cleavage fluorescence;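 active = mean of two replicates above 20%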;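 note: 0% = compound-free wells with enzyme and 100% = wells lacking proteasome; stock transfer was 100 nL into about 20 µL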
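Material: human UCH37 enzyme supplied as purified proteasome complex / Amount: 0.15 nM proteasome as dispensed / Buffer or medium: pH 7.4 Tris-HCl (50 mM) with ovalbumin, ATP-MgCl2, DTT / Times: preincubation 30 min, reaction 25 min, room temperature / Technique: AMC fluorescence from Ub-AMC cleavage, excitation 355 nm, emission 460 nm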
LANA-H2A inh – blocks KSHV LANA binding to histone H2A/H2B; Q9QR71; cell-free LANA-H2A/H2B peptide, fluorescence polarization; inhibition, % (no concentration beside the values); 0.6% of 320,000 active; AID 2629; in the data active = inhibition mostly above about 10%, no sharp cut-off; inactive = mostly below about 6.7%;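 note: stock transfer was 7.5 nL into about 10 µL; 0% = median of vehicle wells and 100% = median of positive control wells; one replicate is shown; the record names a cut of 25% in any replicate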
Target sequence (Q9QR71 whole entry, looked up): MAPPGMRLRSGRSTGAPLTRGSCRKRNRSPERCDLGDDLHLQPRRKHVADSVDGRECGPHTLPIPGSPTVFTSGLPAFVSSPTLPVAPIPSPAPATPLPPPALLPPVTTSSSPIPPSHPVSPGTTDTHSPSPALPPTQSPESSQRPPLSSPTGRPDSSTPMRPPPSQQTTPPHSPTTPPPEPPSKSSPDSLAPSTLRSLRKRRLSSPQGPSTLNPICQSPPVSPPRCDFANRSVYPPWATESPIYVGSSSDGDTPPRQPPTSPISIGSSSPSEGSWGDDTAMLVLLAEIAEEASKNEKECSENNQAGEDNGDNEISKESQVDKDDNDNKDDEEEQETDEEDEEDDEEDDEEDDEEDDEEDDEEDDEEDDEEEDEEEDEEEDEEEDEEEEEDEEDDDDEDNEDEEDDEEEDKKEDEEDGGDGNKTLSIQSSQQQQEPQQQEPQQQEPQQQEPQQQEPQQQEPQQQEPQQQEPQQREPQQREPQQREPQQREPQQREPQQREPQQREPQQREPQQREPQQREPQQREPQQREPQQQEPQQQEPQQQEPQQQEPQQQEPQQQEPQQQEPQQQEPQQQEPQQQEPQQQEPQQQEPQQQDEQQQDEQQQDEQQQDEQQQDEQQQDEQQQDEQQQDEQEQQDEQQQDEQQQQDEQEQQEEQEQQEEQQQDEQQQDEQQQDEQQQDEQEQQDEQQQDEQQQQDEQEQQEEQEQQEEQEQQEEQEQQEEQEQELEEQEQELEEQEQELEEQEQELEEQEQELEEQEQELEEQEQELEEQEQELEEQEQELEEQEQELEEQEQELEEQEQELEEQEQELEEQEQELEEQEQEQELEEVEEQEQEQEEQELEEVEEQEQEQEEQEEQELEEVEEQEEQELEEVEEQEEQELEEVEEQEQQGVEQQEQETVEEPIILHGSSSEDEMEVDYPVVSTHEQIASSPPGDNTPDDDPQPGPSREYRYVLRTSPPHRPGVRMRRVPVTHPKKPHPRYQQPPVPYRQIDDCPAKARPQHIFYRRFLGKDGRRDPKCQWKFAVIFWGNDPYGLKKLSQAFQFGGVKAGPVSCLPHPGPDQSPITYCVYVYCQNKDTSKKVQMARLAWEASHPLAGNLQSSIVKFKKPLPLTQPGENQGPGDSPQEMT
Bfl-1 A1 inh – inhibitors of the anti-apoptotic protein A1, read as caspase activation. MEF A1-2A-BIM cells, Caspase-Glo 3/7 luminescence, 3 h; percent of clofoctol response, vehicle zero. caspase activation, % (test concentration not listed). 0.066% of 330,000 active;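 active = over half of replicate activation scores above 10%, or exactly half above 10 with the replicate mean above 10; inconclusive = replicate mean below 10 yet half the replicates above 10; inactive = over half of replicates below 10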;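 note: wells of about 30 µL received 50 nL stock; many hits fall short of the cut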
E coli growth – inhibitors of Escherichia coli growth; OD600, 23 h; active compounds read low; 0.21% of 330,000 active; AID 1053175; OD600 absorbance (concentration not given with the values);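 active = OD600 absorbance below the run mean of sample wells minus 3.6 SD, in any replicate, cut at about 0.56 in these data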;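 note: stock transfer was 300 nL into about 60 µL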
HNF4A DNA FP – change in binding of human HNF4 alpha to DNA; P41235; HNF4a-FITC DNA binding, fluorescence polarization, 1 h; AID 1224865; activity change, % at 10 µM; 0.3% of 360,000 active; in the data active = activity change above about 30%, passing the limit was not always enough;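 note: controls were the assay level and a saturating level of protein; the project sought stronger binding though the title names inhibitors; some compounds called inactive have numbers as strong as hits; positive values seem to mean higher polarization but the record does not say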
Numbers without * were called inactive; i = inactive; ? = inconclusive; . = no result given.

SMILES	Beta2AR agonist	Vif TR-FRET	UCH37 DUB inh	LANA-H2A inh	Bfl-1 A1 inh	E coli growth	HNF4A DNA FP
NS(=O)(=O)c1ccc(CCNC(=O)c2ccc(C#CC3(O)CCCCC3)cc2)cc1	17	-9%	.	-12	-0.6	.	-1.1
c1ccc(-c2cn(C[C@H]3CC[C@@H]([C@@H]4CC[C@H](Cn5cc(-c6ccccc6)nn5)O4)O3)nn2)cc1	-6	.	4.8	-1.7	0.7	.	2.7
O=C(Nc1cc(Cl)ccc1Cl)Nn1cnnc1	1	.	0.0	-6.3	-0.2	0.71	2.2
CC1(C)C(C=C(Cl)Cl)C1C(=O)N(Cc1cccc(Cl)c1)C1CCS(=O)(=O)C1 (stereo not drawn)	-1	30%	1.7	1.2	0.4	0.63	8.7
O=C(O)CCC(=O)N(Cc1cccs1)Cc1cccs1	2	80µM*	2.5	3.8	-0.7	0.75	-6.0
COc1cc(CCCN2C(=O)C(=O)NC[C@@H]2CC2CCCCC2)cc(OC)c1OC	-1	.	0.7	-7.0	1.7	.	-1.1
Cc1cc(C)cc(C(=O)Nc2ccc(N3CCN(C(=O)c4ccco4)CC3)cc2)c1	21	6%	2.1	-0.6	-2.0	0.66	2.4
Cc1cc(C)nc(Oc2ccc([N+](=O)[O-])cc2)n1	4	.	4.6	0.7	0.3	0.65	-2.1
O=C(CC1c2ccccc2Oc2ccccc21)Nc1ccccc1C(F)(F)F	1	.	2.7	1.8	1.0	0.71	-0.5
Nc1nnc(SCn2nnc3ccccc3c2=O)s1	3	-2%	-1.0	-0.8	0.8	0.65	-3.4
CCCOc1ccc(C2NC(=O)CCC2[N+](=O)[O-])cc1 (stereo not drawn)	-23	.	1.4	1.3	0.1	0.71	1.3
Cc1cc(C)c(NC(=O)CS(=O)CC(=O)Nc2cccnc2)c(C)c1 (stereo not drawn)	-1	6%	4.7	2.1	1.0	0.69	5.6
Cn1c(-c2ccccc2)cnc1SCC(=O)N1CCCCC1	-4	9%	2.4	-1.3	-1.0	0.73	5.0
Cc1cc2nc(-c3ccc(SCC(=O)Nc4ccc5c(c4)OCCO5)nc3)[nH]c2cc1C	3	6%	-29	3.1	-3.6	0.67	2.0
Cc1ccccc1-n1c(SCC(=O)N2CCCC2)nnc1-c1ccccn1	-8	23%	0.2	4.8	1.4	0.72	-1.2
COc1ccc(C)cc1NC(=O)C1CC1c1ccccc1 (stereo not drawn)	-1	.	3.2	1.4	1.5	0.65	0.8
O=C(O)CC1(c2ccccc2)C(=O)c2ccccc2C1=O	5	.	-0.3	3.8	0.5	0.73	3.5
Cc1cccc(OCCCCn2c(CO)nc3ccccc32)c1	2	.	0.0	-7.7	-0.5	0.64	-1.2
O=C(O)c1ccc(N=Cc2c(O)ccc3ccccc23)cc1	7	-1%	13	-3.2	-0.3	0.71	12
CCN(c1ccccc1)S(=O)(=O)c1cccc(C(=O)OCC(=O)Nc2ccc(NC(C)=O)cc2)c1	-6	.	-2.0	-1.1	-0.5	0.7	-0.7
CCC(C)NC(=O)c1cc2c(=O)n3cccc(C)c3nc2s1 (stereo not drawn)	-23	2%	i	3.1	-3.1	0.69	-1.7
Cc1ccc(S(=O)(=O)N2CCC(=O)N(C(CO)Cc3ccccc3)CC2)cc1 (stereo not drawn)	-7	6%	1.1	-1.3	2.7	0.67	-4.1
COc1ccc(CNC(=O)C2(CC3CC(c4ccccc4)=NO3)CCN(C(=O)C3CCCC3)CC2)cc1 (stereo not drawn)	-17	.	30*	2.0	-0.1	0.65	-1.9
CCNC(=O)N1CCC(n2nccc2NC(=O)CCCc2ccccc2)CC1	2	-3%	-1.8	1.2	0.2	0.66	5.3
COCCNC(=O)c1cc2cc(Br)cc(OC)c2oc1=O	7	9%	2.7	-3.2	1.3	0.66	2.1
Cc1cccc(-n2cnc(C(=O)N/N=C/c3ccccc3)c2)n1	-4	14%	.	-1.9	0.6	.	0.9
Cc1ccccc1C1=NC(c2ccc(F)cc2F)ON1 (stereo not drawn)	1	?	-1.0	2.8	-3.6	0.75	2.0
CCN(CC)S(=O)(=O)c1ccc(N2CCCC2)c(C(=O)Nc2ccc(OC)c(Cl)c2)c1	7	.	-1.6	0.2	0.4	0.67	1.7
Cc1ccccc1NC(=O)CSc1nnc(CNC(=O)c2ccc3c(c2)OCO3)n1C	-2	.	1.4	-0.9	0.3	0.69	3.4
CCC(Oc1ccc(C)c(C)c1)C(=O)O (stereo not drawn)	-9	-3%	2.0	0.7	0.1	0.66	2.7
COC(=O)Cc1ccc(OCc2ccc(Cl)nc2)cc1	-2	.	0.1	-1.8	-6.8	0.66	0.8
CN1CCC(N(C)C(=O)Cc2ccccc2[N+](=O)[O-])CC1	-3	3%	0.3	1.7	-1.6	0.69	0.1
COc1cc(C(=O)N(Cc2ccc(F)cc2)C2CCS(=O)(=O)C2)cc(OC)c1OC (stereo not drawn)	-1	2%	0.4	2.0	0.2	0.67	2.3
CCOC(=O)N1CCC(N(CCN(C)C)C(=S)Nc2cccc(Cl)c2C)CC1	6	-2%	1.0	-4.5	2.0	0.66	3.3
COc1cccc(C(=O)COc2ccc3c(C)c(Cc4ccccc4)c(=O)oc3c2C)c1	.	-11%	3.7	-2.8	-0.1	0.72	.
COc1cc(CN(C(=O)c2cc3ccccc3oc2=O)C2CCS(=O)(=O)C2)cc(OC)c1OC (stereo not drawn)	3	2%	2.4	.	.	0.71	1.0
Cc1cc(C(=O)N2CCCC2C(=O)O)c(C)o1 (stereo not drawn)	1	14%	-0.8	18*	.	0.65	-0.3
CCn1cc(Cl)c(C(=O)Nc2nc3ccccc3n2CCN2CCCCC2)n1	-2	5%	3.2	2.4	0.8	0.68	-0.4
CCOc1ccccc1-n1c(SCC(=O)NC)nnc1-c1ccco1	-17	9%	2.2	-2.2	-0.2	0.67	-1.8
N#Cc1c(N)n(CCc2ccc(F)cc2)c2nc3ccccc3nc12	5	3%	-225	6.1	0.1	0.73	5.0
CC(C)c1nnc(NC(=O)C2CCCCC2)s1	-10	?	1.5	1.8	-0.2	0.76	-1.8
COc1ccc(CCN2C(=O)CC(NCc3ccc4c(c3)OCO4)C2=O)cc1OC (stereo not drawn)	3	0%	0.8	-0.9	0.3	0.72	1.3
CN(C(=O)COC(=O)c1cc(-c2ccccc2Cl)nc2ccccc12)C1CCS(=O)(=O)C1 (stereo not drawn)	-16	.	0.7	-1.2	0.0	0.7	2.3
O=C(Nc1sc2c(c1C(=O)O)CCC2)c1ccccc1	2	-1%	9.2	0.0	0.2	0.7	-4.5
CN1CCN(C(=O)c2ccc(C(F)(F)F)cc2)CC1	0	.	6.0	-1.1	0.3	0.7	1.6

Some of these compounds in order of formula weight, highest first.
SMILES	Beta2AR agonist	Vif TR-FRET	UCH37 DUB inh	LANA-H2A inh	Bfl-1 A1 inh	E coli growth	HNF4A DNA FP
CCn1cc(Cl)c(C(=O)Nc2nc3ccccc3n2CCN2CCCCC2)n1	-2	5%	3.2	2.4	0.8	0.68	-0.4
N#Cc1c(N)n(CCc2ccc(F)cc2)c2nc3ccccc3nc12	5	3%	-225	6.1	0.1	0.73	5.0
COC(=O)Cc1ccc(OCc2ccc(Cl)nc2)cc1	-2	.	0.1	-1.8	-6.8	0.66	0.8

Going on with the list.
SMILES	Beta2AR agonist	Vif TR-FRET	UCH37 DUB inh	LANA-H2A inh	Bfl-1 A1 inh	E coli growth	HNF4A DNA FP
COc1ccc(NC(=O)[C@@H]2CCCN2S(=O)(=O)c2cccc3cccnc23)cc1	-4	.	-1.5	1.2	0.7	.	-1.2
CC1Cc2ccccc2N1C(=O)COC(=O)c1c2c(nc3ccccc13)CCCCC2 (stereo not drawn)	23	.	2.6	4.9	0.0	0.75	-5.2
O=C(CNC(=O)c1ccccc1)OCC(=O)c1ccccc1Cl	-1	-7%	0.8	-1.1	-1.2	0.73	2.2
COc1cc(NC(=O)c2ccc(S(=O)(=O)N(C)C)cc2)cc(OC)c1OC	-2	23%	2.9	5.5	0.4	0.71	-0.3
COc1ccc(C(=O)N(CN2CCCC2=O)c2cc(C)on2)cc1OC	0	6%	3.8	1.8	-0.4	0.68	5.8
COC(=O)C(Cc1ccccc1)NC(=O)COc1ccc(C(C)(C)C)cc1 (stereo not drawn)	3	6%	0.2	0.4	-0.6	0.7	-1.5
COc1ccc(-n2nc3c(c2NC(=O)C(C)Cl)CSC3)cc1 (stereo not drawn)	1	.	-2.0	-1.0	-0.4	0.73	-2.8
CC(C)N1CC23C=CC(O2)C(C(=O)OCc2ccccc2)C3C1=O (stereo not drawn)	4	11%	2.5	-0.2	?	0.75	1.7
Cc1ccccc1NC(=S)NCc1ccc(F)cc1	-1	.	0.9	1.7	0.4	0.67	2.0
Cc1ccc(-n2c(O)c(C=Nc3ccc4c(c3)OCO4)c3ccccc3c2=O)cc1C	9	-4%	-73	2.2	0.4	0.74	2.3
Nn1c(SCCOc2ccccc2)nnc1-c1cccnc1	0	9%	1.8	-4.4	-0.4	0.69	4.8
CC(C)(CC(=O)O)CC(=O)Nc1cc(C(F)(F)F)cc(C(F)(F)F)c1	12	-3%	2.6	-0.5	1.0	0.68	0.3
COc1cccc(C2C3=C(CC(C)(C)CC3=O)OC(N)=C2[N+](=O)[O-])c1 (stereo not drawn)	0	-8%	7.4	-1.5	-0.3	0.65	-2.5
O=C(N/N=C/c1cn(Cc2ccccc2)c2ccccc12)c1cc(O)cc(O)c1	5	.	.	-6.5	0.0	.	-1.1
c1ccc(Cc2nnc(N3CCOCC3)c3ccccc23)cc1	-7	2%	-6.0	5.2	-0.3	0.76	-1.7
CCOC(=O)c1c(C)oc2c1c1c(c3ccccc32)OCN(CCCC(=O)O)C1	17	-4%	2.9	7.1	0.9	0.67	2.0
O=C(CCC(=O)NC12CC3CC(CC(C3)C1)C2)NC1CCCCC1	-3	.	3.9	-1.6	-0.2	0.67	1.0
CCC(=O)Nc1nc(NCc2ccccc2OC)n(-c2ccccc2)n1	-5	.	5.8	-5.3	1.2	0.7	-1.0
CC(=O)c1cccc(OCC(=O)N2CCN(c3ccc(C(F)(F)F)cn3)CC2)c1	5	-8%	-0.8	-1.3	0.0	0.7	-0.4
Cc1cc(C(=O)CSc2nc3ccccc3o2)c(C)n1C1CC1	-3	30%	-1.2	11	0.1	0.71	0.9
O=C(CSc1ccc2nnc(-c3cccc(F)c3)n2n1)N1CCCc2ccccc21	-13	.	0.8	5.2	0.3	0.68	0.1
COc1ccc(Br)cc1/C(C)=N/NC1=NCCN1	1	12%	.	-0.3	-0.1	.	0.8
O=C(NCc1ccc(CNC(=O)c2ccco2)cc1)c1ccco1	-2	.	0.7	-1.6	0.0	0.74	-2.2
CCc1nc(NCCN2CCOCC2)c2oc3ccccc3c2n1	-19	11%	-3.1	-1.0	0.3	0.7	0.1
O=c1c(Cl)c(NC2CC2)cnn1-c1ccccc1	-5	-8%	2.1	-1.0	0.3	0.71	1.4
C=CCN=C1S/C(=C\N(C)C)C(=O)N1S(=O)(=O)c1ccc(C)cc1	-5	.	12	2.9	-0.3	0.73	0.6
CC1Cc2cc(S(=O)(=O)N3CCN(c4ccccc4)CC3)ccc2N1C(=O)C1CC1 (stereo not drawn)	-13	.	1.4	-1.2	-2.1	0.71	1.3
C=CCOc1cccc(/C=N/NC(=O)CC(=O)NC2CCCCC2)c1	-6	-2%	.	-4.4	0.1	.	1.9
CCC(OC(=O)c1ccco1)C(=O)NCc1ccc(C)cc1 (stereo not drawn)	10	?	-0.4	4.2	-0.4	0.71	-2.6
CCc1cc(=O)oc2c3c(cc(OCC(=O)NCc4ccco4)c12)OC(C)(C)CC3	10	.	-211	-4.8	-0.4	0.75	3.4
